Screening results deposited in PubChem by National Center for Advancing Translational Sciences (NCATS).
D2 PAM – positive allosteric modulators of human D2 dopamine receptor. P14416. DiscoveRx D2 beta-arrestin cells, luminescence, 90 min; 100% = 57 uM dopamine signal. potentiation, % (no concentration beside the values). actives 0.23% (n = 360,000). AID 624464; active = potentiation of 50% or more; inconclusive = 30% to 50%; inactive = 30% or less;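 note: compound concentration not given in the record; tested on top of an EC20 dose of dopamine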
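D2 cells co-treated with compound plus 50 nM dopamine (EC20) for 90 min at 37 deg C to detect potentiation. Beta-arrestin recruitment was read as enzyme-fragment luminescence after 1 h at ambient temperature. Full response was set by 57 uM dopamine.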
PINK1 expr mod – changes PINK1 expression; AID 624263; Potency, µM (top dose mostly 76.6 µM), without a hit: at the top dose activation (PINK1 increase), most hits filed as activators; actives 0.2% (n = 410,000); PINK1 immunofluorescence, high-content cytometry, 24 h; active = well fitted activation curve with a large enough effect; inconclusive = small, poorly fitted or top-dose-only effect; inactive = flat fitted curve, though single readings scatter; cell line not stated here;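 note: potency is the fitted concentration of half-maximal effect; % of control where 0% means no effect; nearly all actives have a fitted effect of over 65% in size; a mitochondrial uncoupler was the plate control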
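Stable cell line treated 24 h with compounds at 5 concentrations (CCCP controls), then fixed and immunostained for PINK1 plus nuclear and cell stains; PINK1 immunofluorescence quantified by laser-scanning microplate cytometry.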
Six1-Eya2 blk – blocks human Six1 binding to Eya2 | activity change, % (test concentration not listed) | actives 0.56% (n = 360,000) | Q15475+O00167 | AlphaScreen GST-Six1/His-Eya2 binding, biochemical; stronger effect = lower value; control for the full effect not named in the record; in the data active = activity change below about -65%; inconclusive = about -30% to -65%; inactive = above about -30%; note: % is set by controls: 0 for no effect and ±100 for the full control effect; compound concentration not given in the record
Target sequence (O00167 whole entry, looked up): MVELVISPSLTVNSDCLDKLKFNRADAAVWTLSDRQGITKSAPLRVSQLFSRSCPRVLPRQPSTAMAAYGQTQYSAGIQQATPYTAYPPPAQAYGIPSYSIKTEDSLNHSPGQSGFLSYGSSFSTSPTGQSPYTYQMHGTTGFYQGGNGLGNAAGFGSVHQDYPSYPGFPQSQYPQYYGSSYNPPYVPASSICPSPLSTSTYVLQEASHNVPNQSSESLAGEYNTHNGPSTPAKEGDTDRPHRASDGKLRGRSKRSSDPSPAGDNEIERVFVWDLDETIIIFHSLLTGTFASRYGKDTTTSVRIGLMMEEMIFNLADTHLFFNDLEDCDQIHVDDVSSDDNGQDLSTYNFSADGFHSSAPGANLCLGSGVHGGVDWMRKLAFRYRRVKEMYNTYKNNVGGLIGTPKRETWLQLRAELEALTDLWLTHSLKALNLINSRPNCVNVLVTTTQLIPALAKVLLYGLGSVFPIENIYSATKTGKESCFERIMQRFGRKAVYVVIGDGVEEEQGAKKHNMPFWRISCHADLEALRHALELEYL
Target sequence (Q15475 whole entry, looked up): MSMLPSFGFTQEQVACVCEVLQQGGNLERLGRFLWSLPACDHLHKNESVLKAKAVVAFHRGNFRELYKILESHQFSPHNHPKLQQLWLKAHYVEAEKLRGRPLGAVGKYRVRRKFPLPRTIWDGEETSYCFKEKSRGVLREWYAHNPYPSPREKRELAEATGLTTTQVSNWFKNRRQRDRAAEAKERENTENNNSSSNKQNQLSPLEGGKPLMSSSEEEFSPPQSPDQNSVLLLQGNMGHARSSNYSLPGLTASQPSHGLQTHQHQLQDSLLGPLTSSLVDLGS
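AlphaScreen with GST-Six1 and His-Eya2 (5X mix: 250 nM and 500 nM), glutathione donor and nickel acceptor beads; buffer 50 mM Tris pH 8.0, 300 mM NaCl, 1 mM TCEP; 1 h at 37 C in the dark.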
CtBP-E1A inh – inhibitors of CtBP/E1A interaction. AlphaScreen GST-E1A/His-CtBP binding, 1536-well; stronger effect = lower value; control for the full effect not named in the record. activity change, % (test concentration not listed). actives 0.49% (n = 340,000). AID 651724; in the data active means activity change below about -65%; inconclusive means about -30% to -65%; inactive means above about -30%; note: % is set by controls: 0 for no effect and ±100 for the full control effect; compound concentration not given in the record
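Homogeneous bead-based format: GST-tagged E1A captured on glutathione donor beads, His-tagged CtBP on nickel acceptor beads; compounds precede bead addition by 2 h at 37 °C.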
D2 ag – activates the human D2 dopamine receptor; DiscoveRx PathHunter D2 beta-arrestin, luminescence, 90 min; 100% = 57 uM dopamine signal; AID 624465; P14416; activation, % (concentration not given with the values); actives 0.084% (n = 360,000); in the data active = activation above about 40%; inconclusive = about 15% to 40%; inactive = below about 15%; note: compound concentration not given in the record; the text of the record calls up to 30% inactive
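DiscoveRx PathHunter D2 beta-arrestin cells (2,100/well) attached overnight, then compound-stimulated 90 min at 37 C in HBSS/10 mM HEPES/0.1% Tween-20 buffer; beta-galactosidase complementation read by luminescence after 1 h at ambient temperature. Dopamine 57 uM final (EC100) as control.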
TRPV1 PAM – human TRPV1 potentiation; TRPV1-expressing cells, Fluo-8 calcium influx, capsaicin EC20 potentiation; host cell line not named in the record; control for the full effect not named in the record; potentiation, % at 8.33 µM; actives 0.02% (n = 320,000); AID 540277; active means potentiation above 80%; inconclusive means 30% to 80%; inactive means below 30%; note: 0% is about no effect
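Cells expressing TRPV1 were dye-loaded with Fluo-8 and read kinetically: 10 s baseline, 3 min after compound (agonist portion), then 2 min after EC20 capsaicin (allosteric enhancer portion). Calcium-bound dye fluorescence at 480/520 nm.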
Sfp inh – Sfp phosphopantetheinyl transferase inhibition; Q9F4F7; Potency, µM, for inactives: max response, negative = inhibition, actives largely listed as inhibitors; Biochemical Sfp PPTase activity, qHTS; actives 3.5% (n = 310,000); active = well fitted inhibition curve with a large enough effect; inconclusive = small, poorly fitted or top-dose-only effect, or another doubt; inactive = no such curve, though single readings can be large or run the other way;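 note: the enzyme is Sfp with the accession as filed and its product quenches rhodamine fluorescence; potency is the fitted concentration of half-maximal effect; 0% = enzyme reaction without inhibitor and -100% = no enzyme wells; top concentration of the series not given in the record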
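Reaction rates are the 30-min fluorescence difference (ex 525, em 598 nm) in wells containing 15 nM Sfp, 5 uM rhodamine-CoA and 12.5 uM BHQ-2-YbbR at pH 7.6 with 10 mM MgCl2.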
The depositor's hits bear a star; ? = inconclusive; / = no result given; & = joins results of further samples; [ ] = another dose, or the depositor's remark. An unsorted share of the library. About 3.7% of those tested had a hit in this group.

canonical_smiles,PINK1 expr mod,CtBP-E1A inh,D2 PAM,Sfp inh,D2 ag,Six1-Eya2 blk,TRPV1 PAM
CCOc1ccc(C(=O)NCC(=O)N2CCC3CCCCC3C2)cc1OCC (centres undefined),1.5%,-9,-9,9%,0.2,13,23
CC(NC(=O)Cn1cc(C(F)(F)F)cc(Cl)c1=O)c1ccccc1 (centres undefined),1.2%,9,-5,9%,-0.2,-2,-5
CCC(=O)N1CCN(c2ccccc2NC(=S)NC(=O)c2cccc([N+](=O)[O-])c2)CC1,1.6%,-16,-1,-11%,0.1,-16,-6
O=C(COC(=O)[C@@H]1CCCN1C(=O)c1cccs1)Nc1cccc(Cl)c1,1.3%,-4,0,/,-1.9,-8,/
Cc1ccc(C(=O)N/C(=C\c2ccco2)C(=O)NCC2CCCO2)cc1C (centres undefined),1.0%,15,-3,-16%,-1.2,2,5
CC(C)NC(=O)COc1ccc2c(c1)C(=O)CC(C)(C)O2,1.7%,/,-10,13%,-6.2,5,-2
COc1ccc(NC(=O)C2CCCN(S(=O)(=O)c3cccnc3)C2)c(OC)c1 (centres undefined),-2.3%,5,-1,3%,-3.2,2,-2
CCC(c1nnnn1C(C)(C)CC)N(CCCN1CCOCC1)Cc1cc2cccc(C)c2[nH]c1=O (centres undefined),5.1%[38.3 µM],6,2,-9%,-2.2,0,15
O=C(O)c1cc(-c2ccco2)[nH]n1,-3.4%,0,-4,22µM*,-4.9,-1,14
CS(=O)(=O)N(CC(=O)N1CCN(c2ccccc2)CC1)Cc1ccc(Cl)cc1,5.2%[38.3 µM],0,-8,-8%,-0.4,-2,-4
CCOC(=O)C1(Cc2ccccc2Cl)CCN(C(=O)CN2CCOC2=O)CC1,-0.1%,1,-1,16%,-5.9,1,4
CC1CN(S(=O)(=O)c2ccc(C(=O)N(C)C3CCCCC3)cc2)CC(C)O1 (centres undefined),-0.3%,0,-4,/,0.2,-7,/
CCOC(=O)c1sc(NC(=O)CSc2nnc(Cc3ccccc3)o2)c(C#N)c1C,24%,5,-10,3.2µM*,-3.0,-4,-34
CCc1nnc(NC(=O)CN2C(=O)N(C)C3(CCCCC3)C2=O)s1,2.0%,26,2,/,-0.6,19,-3
Nc1nnc(SCCCC(=O)c2ccc(F)cc2)s1,1.2%,-2,-2,-14%,-2.8,1,-26
Cc1cc(C)cc(N=C2NC(=O)CS2)c1,-0.5%,-1,0,11%,3.6,2,7
CCC(=Cc1ccccc1O)c1ccncc1,6.1%,0,-1,/,1.5,2,/
CCN(CC)S(=O)(=O)c1ccc(N2CCOCC2)c(NC(=O)c2nn(C)c(=O)c3ccccc23)c1,4.2%,1,-3,/,-2.4,-1,/
C=CCN(CC=C)c1ccc(N2C(=O)C3CCCCC3C2=O)cc1[N+](=O)[O-] (centres undefined),4.6%,-8,-9,3%,2.8,-12,-8
O=c1c2ccccc2nc(-c2cccc(Cl)c2)n1O,-3.5%[38.3 µM],0,-5,13%,-0.8,2,2
CCOC(=O)C1CCN(C(=O)/C=C/c2ccc(OC)cc2)CC1,-1.1%,5,-4,13%,-1.1,1,-2
CCC(=O)Nc1ccc(NCc2ccc(-c3ccccc3)cc2)cc1,-0.9%,3,-2,-5%,9.0,-24,10
CC(=O)c1ccc(NC(=O)c2ccccc2-c2ccccc2C(=O)O)cc1,-1.2%,1,-2,15%,-3.6,4,1
COc1ccc(/C=C2/C(=O)N(CC3CCCO3)C(=S)N2C)c(OC)c1 (centres undefined),/,0,-24,3%,-4.8,8,8
CCn1cnc2c1c(=O)n(CC(=O)OC)c(=O)n2Cc1ccccc1,-2.4%,3,-4,13%,-2.2,0,6
O=C(NCCS(=O)(=O)NCc1ccccc1Cl)c1ccc2c(c1)OCO2,0.9%,10,0,/,-1.8,-9,-10
CCOC(=O)CSc1nc(N)c(C#N)c(-c2cccs2)c1C#N,3.0%,4,13,10%,2.8,5,-9
COc1ccc(S(=O)(=O)N2CCN(C(=O)CC(C)C)CC2)cc1,-1.3%,4,7,18%,0.5,4,0
CCOc1ccc2oc(C(=O)OCC(=O)N(CC(C)C)c3c(N)n(Cc4ccccc4)c(=O)[nH]c3=O)c(C)c2c1,0.0%,-6,7,/,-2.1,-3,/
CCOC(=O)C(Cc1cc(C(C)=O)ccc1OCC)C(=O)OCC,3.8%,9,-24,6%,-9.5,0,-13

One compound at a time (already shown):
`CCC(=O)N1CCN(c2ccccc2NC(=S)NC(=O)c2cccc([N+](=O)[O-])c2)CC1` as listed: PINK1 expr mod = 1.6%; CtBP-E1A inh = -16; D2 PAM = -1; Sfp inh = -11%; D2 ag = 0.1; Six1-Eya2 blk = -16; TRPV1 PAM = -6
`CC(=O)c1ccc(NC(=O)c2ccccc2-c2ccccc2C(=O)O)cc1` as listed: PINK1 expr mod = -1.2%; CtBP-E1A inh = 1; D2 PAM = -2; Sfp inh = 15%; D2 ag = -3.6; Six1-Eya2 blk = 4; TRPV1 PAM = 1

Other records
canonical_smiles,PINK1 expr mod,CtBP-E1A inh,D2 PAM,Sfp inh,D2 ag,Six1-Eya2 blk,TRPV1 PAM
COC(=O)c1cc(C(=O)OCC(=O)NC(=O)NCc2ccccc2)cc([N+](=O)[O-])c1,-0.4%,-9,2,/,7.4,-7,4
CCC(CO)Oc1cc(NCc2cccc(C(F)(F)F)c2)c2ncn(C(C)C)c2c1 (centres undefined),5.1%,-11,-16,/,3.2,-9,/
CCc1nnc(NC(=O)c2sc3nc4cc(C)ccc4cc3c2N)s1,5.8%[38.3 µM],-6,2,-11%,0.4,-4,-18
COCc1ccc(C(=O)NC2CCSc3ccccc32)cc1 (centres undefined),0.4%,-16,-8,1%,-3.7,-4,5
CC(=O)Nc1cncc(-c2cccc(N(C)C)c2)n1,3.6%,-9,-3,/,3.3,-5,/
COc1cccc(CC2(CO)CCN(Cc3cnc(N4CCOCC4)s3)CC2)c1,-0.7%,2,-4,15%,-0.7,0,-4
CN(CCNC(=O)CCCOc1cc(=O)n(C)c2ccccc12)Cc1ccccc1,-1.4%,-6,-8,17%,-4.2,4,-2
CCOc1ncccc1C(=O)Nc1ccc(OC)c(S(=O)(=O)N2CCOCC2)c1,0.9%,-16,-7,/,-4.6,17,-3
Cc1onc(-c2c(Cl)cccc2Cl)c1NC(=O)NNc1ccccc1,1.8%,/,-19,2%,-3.2,-5,-1
COc1cccc(Nc2nc3ccccc3c(=O)[nH]2)c1,-0.1%,-9,-1,-2%,-0.2,0,-4
Cc1ccc(S(=O)(=O)c2cc3c(=O)n4cccc(C)c4nc3n(Cc3ccncc3)c2=N)cc1,-0.8%,9,-11,-17%,-3.4,0,-5
Cc1oc(-c2ccoc2)nc1CN(Cc1ccccc1)CC1CC1,-1.5%,/,-34,7%,-2.2,2,-15
O=C(NC(=S)Nc1ccc(Cl)c(C(=O)O)c1)c1ccc(OCc2ccccc2)cc1,0.4%,?,-10,?,-3.4,-7,7
COC(=O)/C(=N/Nc1ccccc1Cl)Sc1nnc(C(O)c2ccccc2)n1-c1ccccc1 (centres undefined),0.4%,1,-19,-22%,-6.5,-3,?
O=c1c2ccccc2c(-c2ccccc2)nn1-c1ccccc1,1.0%,0,2,-3%,-6.9,23,-5
CCCN(CCC)Cc1c(C(=O)N/N=C/c2c[nH]c3ccccc23)nnn1-c1nonc1N,1.7%,-4,-5,20%,-3.0,-9,-4
COc1cc(C2CC(=O)Oc3c(C(CCN4CCOCC4)c4ccc(N(C)C)cc4)c(OC)cc(OC)c32)cc(OC)c1OC (centres undefined),1.2%,-12,-111,1%&2%,-0.7,?,12
Cc1nc(C)n(CCNS(=O)(=O)c2ccccc2)n1,1.6%,2,-4,16%,1.8,10,4
CC1CC(C)(C)CC2(C1)NC(=O)N(CC(=O)NC1CCCc3ccccc31)C2=O (centres undefined),5.7%,21,-5,7%,-3.4,15,-6
Cn1c(C(=O)OCC(=O)NCCc2ccccc2)cc2sccc21,1.0%[38.3 µM],53,-21,12%,-4.0,18,7
CSc1ccc(CN2CCN(S(=O)(=O)Cc3ccccc3)CC2)cc1,6.5%,10,-23,3%,-1.4,-1,-14
CC(=O)Nc1ccc(N(C(=O)c2ccco2)C(C(=O)NC2CCCC2)c2ccncc2)cc1 (centres undefined),-0.1%,-1,-10,-3%,-15,-17,-3
COc1ccc(C(=O)N(CCCO)Cc2cc3c(C)ccc(C)c3[nH]c2=O)cc1OC,0.1%,6,5,8%,2.8,-5,-7
COc1ccc(OC)c(CCNC(=O)C2CCN(c3nnc(-n4cccc4)s3)CC2)c1,1.3%,-12,-4,-1%,-1.7,-5,/
Nc1ncnc2nc(Sc3ccc(Cl)cc3)[nH]c12,4.8%,-1,0,8%,-3.1,-5,-19
Cc1cc(C)c2c(=N)c3ccccc3n(CCCCCCCCn3c4ccccc4c(=N)c4c(C)cc(C)nc43)c2n1,-1.7%,-5,-40,/,-12,5,/
COC(=O)c1ccc(CNC(=O)C(C)N=C2NS(=O)(=O)c3ccccc32)cc1 (centres undefined),-1.3%,7,-38,/,-2.8,0,4
Cc1occc1C(=O)NCc1cccc(CNC(=O)c2ccoc2C)c1,-2.3%,-21,17,?,-1.2,-15,1
O=C(COC(=O)c1c[nH]c2ccccc12)Nc1ccccc1,14%,8,-2,/,-1.1,3,/
NS(=O)(=O)c1ccc(NC(=O)COC(=O)c2cc(Cl)ccc2[N+](=O)[O-])cc1,-1.0%,-6,19,4%,0.2,0,-9
CCN(CC)c1ccc(CNc2nc3ccccc3n2CC)cc1,?,-10,-8,3%,-0.6,18,?
Nc1nccnc1C(=O)OCC(=O)c1ccc[nH]1,-1.5%,-3,11,/,-0.6,2,?
NC(=O)c1ccsc1NC(=O)COC(=O)CNC(=O)c1ccc(Cl)cc1,2.5%,6,-1,/,1.3,-4,/
CC(C)c1ccc(NC(=O)[C@@H](C)NC(=O)[C@@H]2Cc3ccccc3CN2)cc1,0.7%,2,-7,6%,1.9,-4,3
COCCNC(=O)C(c1ccc(C)cc1)N(C(=O)CCC(=O)Nc1ccccn1)c1ccc(F)cc1 (centres undefined),0.5%,3,-3,17%,0.4,-1,-4
CCCCCCC(=O)N/N=C(\C)Cc1ccccc1,-1.0%,-2,-6,22%,1.6,0,-2
O=C(/C=C/c1cccc(F)c1)Nc1ccc(S(=O)(=O)Nc2ncccn2)cc1,-1.2%,-7,1,8%,-3.3,-4,/
